2A StopGo: lowers the luciferase signal of an FMDV 2A StopGo reporter; human cells with a luciferase reporter of 2A StopGo recoding; control for the full effect not named in the record; Potency, µM (titrated, usually from 57.9 µM), without a hit: at the highest dose signal change, negative = less light; 410,000 compounds, 1.2% hits; AID 1159524; active = well fitted falling curve with a large enough effect; inconclusive = small, poorly fitted or top-dose-only effect; inactive = no such curve, though single readings can be large or run the other way; tested in HEK293T cells; note: % is set by controls: 0 for no effect and ±100 for the full control effect; nearly all actives have a fitted effect of over 45% in size; luciferase light after 4 h
NS1 inh: inhibitors of influenza NS1 protein function | S. cerevisiae slowed by influenza A NS1, growth recovery by OD600 | Potency, µM (series often up to 46.1 µM), for the others: top-dose activity, positive = more growth | 270,000 compounds, 0.4% hits; active means well fitted rising curve with a large enough effect; inconclusive means small, poorly fitted or top-dose-only effect; inactive means no such curve, though single readings can be large or run the other way; note: nearly all actives have a fitted effect of over 50% in size
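Growth recovery, yeast-based: influenza A NS1 expressed in S. cerevisiae causes slow growth, and suppressors are detected by OD600. The parent strain without NS1 is used as positive control.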
Cruzain inh Det: cruzain (T. cruzi) inhibition with detergent. AID 1478. P25779. purified cruzain, Z-FR-AMC fluorescence, 0.01% Triton. 200,000 compounds, 0.43% hits. Potency, µM, without a hit: max response, negative = inhibition, hits mostly inhibitors;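 note: plate controls were neutral wells for no effect and buffer without enzyme for full effect; nearly all actives have a fitted effect of over 40% in size; top concentration of the series not given in the record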
Target sequence (P25779 123-467 limits assumed): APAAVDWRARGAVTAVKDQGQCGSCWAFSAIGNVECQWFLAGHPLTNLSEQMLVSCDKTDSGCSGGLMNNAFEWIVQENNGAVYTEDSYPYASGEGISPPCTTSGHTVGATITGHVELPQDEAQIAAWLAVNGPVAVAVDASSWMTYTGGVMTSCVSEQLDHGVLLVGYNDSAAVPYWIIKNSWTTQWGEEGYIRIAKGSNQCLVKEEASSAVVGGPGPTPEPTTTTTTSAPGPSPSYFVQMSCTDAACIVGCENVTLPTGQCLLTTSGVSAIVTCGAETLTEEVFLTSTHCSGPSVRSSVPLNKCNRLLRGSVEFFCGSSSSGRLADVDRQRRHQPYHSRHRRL
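Steps: dispense cruzain (1.5 nM final) in acetate buffer pH 5.5 with DTT and 0.01% Triton X-100; pin-transfer compounds; incubate 15 min RT; add Z-FR-AMC (2 uM final); read fluorescence every 30 s, using the 60 s intensity change.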
SARS PLP yeast: SARS-CoV PLP inhibition in yeast; 330,000 compounds, 0.19% hits; AID 485353; Potency, µM (titrated, usually from 32.9 µM), inactives show at the top dose activity, positive = growth rescue; S. cerevisiae expressing SARS-CoV PLpro, growth rescue; control for the full effect not named in the record; active means well fitted rising curve with a large enough effect; inconclusive means small, poorly fitted or top-dose-only effect; inactive means no such curve, though single readings can be large or run the other way; note: 0% is about no effect; nearly all actives have a fitted effect of over 55% in size; growth read by luminescence after 48 h
LASV entry inh: inhibitors of Lassa virus binding or cell entry | Lassa virus pseudotype entry inhibition, cell reporter; control for the full effect not named in the record | Potency, µM (doses to about 37.9 µM), for the others: at the highest dose activity change, negative = inhibition, usual class: inhibitors | 300,000 compounds, 1.2% hits; active means well fitted inhibition curve with a large enough effect; inconclusive means small, poorly fitted or top-dose-only effect, or effect the other way; inactive means flat fitted curve, though single readings scatter; tested in HEK293 cells; note: % is set by controls: 0 for no effect and ±100 for the full control effect; nearly all actives have a fitted effect of over 50% in size; luciferase read-out
Cruzain noTriton: cruzain (T. cruzi) inhibition without detergent; purified cruzain, Z-FR-AMC fluorescence, no detergent; 200,000 compounds, 2.3% hits; P25779; Potency, µM, inactives show max response, negative = inhibition, hits mostly inhibitors;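 note: plate controls were enzyme without inhibitor for no effect and buffer without enzyme for full effect; nearly all actives have a fitted effect of over 40% in size; top concentration of the series not given in the record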
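Purified cruzain at 1.5 nM, pre-incubated 15 min with compound at room temperature in 100 mM sodium acetate pH 5.5, 5 mM DTT, 0.00005% Triton X-100. Reaction started with 2 uM Z-FR-AMC; AMC fluorescence increase over 60 s gives rate.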
MARV entry inh: Marburg virus entry inhibition. 300,000 compounds, 1.8% hits. Potency, µM (series often up to 37.8 µM), for inactives: at the top dose activity change, negative = inhibition, usual class: inhibitors. Marburg virus pseudotyped entry inhibition, cell reporter; control for the full effect not named in the record; about a third of the inactives were read at about 46 µM; active = well fitted inhibition curve with a large enough effect; inconclusive = small, poorly fitted or top-dose-only effect, or effect the other way; inactive = flat fitted curve, though single readings scatter; tested in HEK293 cells; about a fifth of its hits are not listed in these tables; note: % is set by controls: 0 for no effect and ±100 for the full control effect; luciferase read-out
RE007 growth inh: less growth of the S. pombe RE007 Vpr strain; S. pombe RE007 Vpr strain, BacTiter-Glo ATP luminescence, 24 h; control for the full effect not named in the record; Potency, µM (top dose mostly 92.2 µM), for inactives: at the top dose activity change, negative = less growth; 360,000 compounds, 0.21% hits; AID 651644; active = well fitted falling curve with a large enough effect; inconclusive = small, poorly fitted or top-dose-only effect; inactive = no such curve, though single readings can be large or run the other way;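 note: % is set by controls: 0 for no effect and ±100 for the full control effect; nearly all actives have a fitted effect of over 50% in size; the assay follows cell death caused by Vpr and the record does not say whether a fall means rescue or toxicity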
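Fission yeast strain RE007, carrying one chromosomally integrated HIV-1 vpr copy, was seeded at OD 0.01 in PMG+AL medium with 23 nL pinned compound. After 24 h at 30 °C and 99% humidity, viability was read by BacTiter-Glo luminescence.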
* = called active by the depositor; u = inconclusive; x = no result given; & = joins results of further samples; [ ] = dose if it differs, or a comment. Unless noted, calls come from the whole dose curve; as a rule, active = well fitted curve in the direction sought with a large enough effect; inconclusive = small, poorly fitted or top-dose-only effect, or another doubt; inactive = no such curve, though single readings can be large; an effect the other way counts as inactive or inconclusive. Potency is the fitted concentration of half-maximal effect.

SMILES	2A StopGo	NS1 inh	Cruzain inh Det	SARS PLP yeast	LASV entry inh	Cruzain noTriton	MARV entry inh	RE007 growth inh
Cc1noc(/C=C/c2ccccc2F)c1S(=O)(=O)N1CCC(C(=O)N(C)Cc2ccco2)CC1	-9.1%	x	-5.0%	x	u	u	x	x
O=C(NCCC1=CCCCC1)c1ccc2c(c1)N(Cc1cccc(Cl)c1)C(=O)c1ccccc1S2=O (configuration not stated)	10.7%	x	-1.5%	x	-26.9%[46.1 µM]	12.6µM*	x	x
O=C(COC(=O)CN1C(=O)c2ccccc2C1=O)Nc1ncc(Cl)cc1Cl	-8.1%	-30.4%	-5.7%	6.3%	7.2%	-20.4%	-3.0%	-7.1%
CC(C)(C)c1ccc(S(=O)(=O)NCC(=O)Nc2sc3c(c2C(N)=O)CCCC3)cc1	0.0%	7.4%	-8.6%	4.9%	-0.5%	-10.0%	u	31.6%
COc1ccccc1N1CCN(C2CCCN(C(=O)CCc3cnccn3)C2)CC1 (configuration not stated)	-7.4%	0.6%	x	-2.9%	x	x	x	5.3%
COc1ccc(Nc2ncnc3scc(-c4ccc(OC)cc4)c23)cc1	u	u	-3.6%	5.5%	u	-9.4%	7.31µM*	-3.5%
COC(=O)NNC(=O)c1ccc(C)cc1	6.5%	2.5%	1.2%	x	7.7%	-3.8%	23.0%	17.8%
O=C(Nc1ccccc1)c1ccc(Cn2cc(C(F)(F)F)ccc2=O)cc1	-11.8%	1.3%	-1.7%	3.6%	u	-5.1%	-24.8%	-4.1%
COc1ccc(NC(=O)Nc2nnc(N3CCCCCC3)s2)c(OC)c1	-12.8%	x	-2.9%	x	-15.7%[46.1 µM]	12.0%	u	x
C[C@]12CCC(=O)C=C1C=CC1C2CC[C@]2(C)C(=O)CCC12 (some centres not stated)	-22.6%	x	x	-0.2%	u	x	6.7%	-9.8%
Cc1ccc(NC2=NCC(=O)N2Cc2ccccc2)c(C)c1	-18.7%	10.1%	-1.0%	10.1%	14.6%	4.0%	-4.1%	-13.2%
COc1cc(C2N(Cc3ccccc3)CCN2Cc2ccccc2)ccc1OC(C)=O	0.9%	-9.1%	x	-1.7%	x	x	x	-7.2%
CC1=C(c2ccc(C)cc2)S(=O)(=O)NC1=NCCCN1CCN(c2ccccc2F)CC1	-5.2%	x	-3.8%	x	3.9%[46.1 µM]	10.1%	13.6%[46.1 µM]	x
O=C1/C(=C/c2ccc(O)c(O)c2)SC(=S)N1Nc1ccccc1	4.1%	x	x	5.4%	u	x	u	2.9%
Cc1ccc(OCCNS(=O)(=O)c2cccs2)cc1	39.0%[activator]	-4.4%	-1.7%	6.2%	2.6%	1.4%	u	-8.1%

Two consecutive compounds out of the list so far, quoted:
SMILES	2A StopGo	NS1 inh	Cruzain inh Det	SARS PLP yeast	LASV entry inh	Cruzain noTriton	MARV entry inh	RE007 growth inh
Cc1ccc(NC2=NCC(=O)N2Cc2ccccc2)c(C)c1	-18.7%	10.1%	-1.0%	10.1%	14.6%	4.0%	-4.1%	-13.2%
COc1cc(C2N(Cc3ccccc3)CCN2Cc2ccccc2)ccc1OC(C)=O	0.9%	-9.1%	x	-1.7%	x	x	x	-7.2%

The list continues:
SMILES	2A StopGo	NS1 inh	Cruzain inh Det	SARS PLP yeast	LASV entry inh	Cruzain noTriton	MARV entry inh	RE007 growth inh
COC(=O)N/N=C/c1cc(Cl)cc(Cl)c1OCc1ccccc1	-20.1%	13.7%	-7.4%	2.7%	8.9%	-9.7%	u	-13.4%
COc1ccc(C(=O)Nc2cccc(C)c2)cc1S(=O)(=O)N1CCOCC1	x	-7.1%	10.7%	5.8%	1.1%	u	4.3%	9.1%
COc1ccc(CC(=O)Nc2ccc(-c3nnc(-c4ccc(C)cc4)o3)cc2)cc1	0.0%	4.9%	-5.7%	4.8%	-26.2%	6.8%	u	24.1%
Cc1cc(C(=O)Nc2cccc(F)c2)c2c(C)nn(-c3cccc(Cl)c3C)c2n1	u	x	-3.3%	x	u	2.7%	x	x
CN(C)CCn1c(=S)[nH]c2ccc(Cl)cc2c1=O	1.0%	x	x	0.4%	-8.7%[46.1 µM]	x	-13.1%[46.1 µM]	-1.7%
c1ccc(Cn2nnnc2CN2CCCC2)cc1	x	4.2%	0.0%	-2.1%	4.7%	10.4%	-17.4%	-3.3%
COc1ccc(C=NNC(=O)c2cc(C)oc2C)cc1O	9.3%	x	x	-9.0%	u	x	u	-9.6%
COc1ccccc1CCNC(=O)c1ccc2c(c1)c(C)c(C)n2Cc1ccc(Cl)cc1	-19.6%	x	3.0%	x	-23.7%[46.1 µM]	12.6µM*	x	x
O=c1cc(S(=O)(=O)Cc2ccccc2)[nH]c(=O)[nH]1	-19.3%	x	x	x	9.9%[46.1 µM]	x	0.2%[46.1 µM]	-18.2%
Cc1ccc(CNC(=O)c2c(-c3ccccc3F)noc2C)o1	-5.7%	x	1.1%	x	4.4%[46.1 µM]	-17.2%	x	x
Cc1cc(C)c(S(=O)(=O)N2CCCC(C(=O)NCc3ccccn3)C2)c(C)c1 (configuration not stated)	-1.8%	3.1%	x	-2.9%	-3.4%[46.1 µM]	x	-1.3%[46.1 µM]	-10.2%
Cc1ccc(-c2nnc(Nc3ccc(C(=O)N(C)C)cc3)c3ccccc23)cc1S(N)(=O)=O	38.3%[activator]	-10.2%	x	-1.7%	x	x	-4.4%	-11.7%
COCCCn1c(=O)c2sccc2n2c(CCCC(=O)N3CCN(c4ccccn4)CC3)nnc12	-15.2%	10.0%	x	22.8%	x	x	x	6.6%
Cc1cc(C)c(NC(=O)CSc2nc3[nH]ncc3c(=O)[nH]2)c(C)c1	-13.8%	x	x	-1.1%	-15.6%	x	-7.5%[46.1 µM]	2.3%
CCCCc1ccc(NC(=O)C2(C)Cc3ccccc3C(=O)O2)cc1 (configuration not stated)	-8.7%	x	-11.6%	x	9.2%[46.1 µM]	-8.3%	7.1%[46.1 µM]	x
CCN(CC(=O)NCc1cccs1)C(=O)C1CC(=O)N(c2ccc(OC)cc2OC)C1 (configuration not stated)	5.7%	x	x	x	16.3%	x	23.6%	0.9%
COCC(C)NS(=O)(=O)c1ccccc1 (configuration not stated)	10.7%	2.0%	x	0.1%	24.1%[46.1 µM]	x	u	-6.1%
CCC1CCCCN1CCCNC(=O)C1CCC(CNS(=O)(=O)c2c(C)cc(C)cc2C)CC1 (configuration not stated)	-28.0%	-14.4%	x	1.5%	x	x	x	4.6%
CCOc1ccc(OCc2nnc(SCC(=O)NC3CCS(=O)(=O)C3)n2-c2ccc(Cl)cc2)cc1 (configuration not stated)	-24.3%	-7.5%	-6.3%	4.4%	6.8%	u	-4.6%	7.5%
Cc1cc([N+](=O)[O-])ccc1NCc1ccc2c(c1)OCCO2	8.2%	-11.5%	x	-11.5%	25.6%	x	5.9%	9.5%
O=C(CCSCc1ccccc1F)NCCc1ccccc1	-0.8%	x	x	0.0%	6.2%[46.1 µM]	x	10.4%[46.1 µM]	-8.9%
Cc1ccc(Cl)c2c1=NC(=O)C=2c1[nH]c(=S)[nH]c1O	-12.9%	x	x	0.1%	1.2%	x	-7.2%	-15.8%
CCOc1ccc(C(=O)NC2CCN(S(=O)(=O)CC)CC2)cc1	-11.8%	-7.0%	4.6%	-7.4%	8.0%	-8.1%	-1.4%	0.1%
N#Cc1c(N)n(CCOC(=O)c2cccc([N+](=O)[O-])c2)c2nc3ccccc3nc12	u	-2.2%	-13.2%	4.0%	-1.1%	u	-13.0%	0.7%
Cc1ccc(NC(=O)CSCC(=O)Nc2ccc(S(=O)(=O)N3CCOCC3)cc2)cc1	-17.5%	9.9%	x	0.9%	0.6%	x	0.6%	1.6%
CCc1noc(C)c1C(=O)OC(C)C(=O)Nc1ccc2c(c1)OCO2 (configuration not stated)	25.7%	x	x	-3.5%	5.5%	x	1.9%	-16.3%
Cc1cccc(NC(=O)COC(=O)c2ccc3c(c2)OCO3)c1C	-2.0%	0.7%	x	-1.3%	x	x	x	1.8%
COc1ccccc1-n1c(-c2cccnc2)n[nH]c1=S	25.6%	6.4%	2.2%	0.4%	11.5%	6.0%	19.4%	12.2%
Cc1nn(-c2ccccc2)c(C)c1NS(=O)(=O)c1ccccc1	-6.8%	0.0%	1.1%	u	6.4%	-0.8%	-3.0%	17.0%
CCN1CCc2c(sc(NC(=O)c3ccc(C(=O)c4ccccc4)cc3)c2C(N)=O)C1	-22.3%	-2.7%	x	0.3%	u	x	u	-7.9%
Cc1cccc(S(=O)(=O)N/N=c2\sc3ccccc3n2C)c1	8.1%	8.2%	x	-2.0%	11.3%[46.1 µM]	x	6.6%[46.1 µM]	4.7%
COc1cc(O)c(C(C)=O)c(OC)c1	-24.8%&-27.8%	x	-3.3%	x	x	17.1%	x	8.7%
O=C(NN=Cc1cc(=O)[nH]c(=O)[nH]1)c1ccncc1	-16.4%	x	x	x	15.4%	x	13.2%	-0.7%
COc1ccccc1Cn1cccc1C=O	-8.5%	-3.1%	x	0.3%	4.5%	x	-15.0%[46.1 µM]	1.3%
COc1ccc(NS(=O)(=O)c2ccc(NC(=S)NCC3CCCO3)cc2)cc1 (configuration not stated)	2.4%	15.4%	x	15.7%	-17.3%[46.1 µM]	x	-8.5%[46.1 µM]	-6.4%
C=CCNC(=O)NC(=O)COC(=O)C(C)Oc1ccc(Cl)cc1Cl (configuration not stated)	2.4%	x	x	-3.9%	-5.5%	x	23.1%[46.1 µM]	-10.2%
Cc1ccc2c(=O)n(-c3cccc(Cl)c3)c(=O)[nH]c2c1	-1.6%	x	-2.1%	x	6.1%[46.1 µM]	1.3%	x	x
COCCCn1c(SCC(=O)Nc2ccc(C(=O)OC)cc2)nc2ccccc2c1=O	21.9%	-13.1%	8.0%	2.2%	u	u	-17.7%	9.5%
CCCN(c1ccc(C(C)C)cc1)S(=O)(=O)c1ccc2c(c1)CCN2C(=O)CC	0.0%	x	-1.4%	x	u	-4.3%	u	x
COC(=O)c1c(NC(=O)C2CCC2)sc(C(=O)N(C)C)c1C	-0.4%	-3.2%	-3.6%	7.2%	-1.6%	2.8%	-2.0%	-5.7%

Screening results: PubChem, National Center for Advancing Translational Sciences (NCATS)
